TRPML1 blocker: qHTS for Inhibitors of the Human Mucolipin Transient Receptor Potential 1 (TRPML1); TRPML1-inducible cells, Ca2+ dye fluorescence, FDSS; stronger effect = lower value; inhibition of EC80 agonist-evoked calcium signal; activity change, negative = inhibition, % (concentration not given with the values); actives 0.02% (n = 390,000); AID 624415, 2012; in the data active means activity change below about -50%; inconclusive means about -30% to -50%; inactive means above about -30%;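 note: stimulus is agonist 54-4 at its EC80 concentration; % is set by controls: 0 for no effect and ±100 for the full control effect; compound concentration not given in the record; the text of the record puts the active cut at -80%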
Target sequence (Q9GZU1 whole entry, looked up): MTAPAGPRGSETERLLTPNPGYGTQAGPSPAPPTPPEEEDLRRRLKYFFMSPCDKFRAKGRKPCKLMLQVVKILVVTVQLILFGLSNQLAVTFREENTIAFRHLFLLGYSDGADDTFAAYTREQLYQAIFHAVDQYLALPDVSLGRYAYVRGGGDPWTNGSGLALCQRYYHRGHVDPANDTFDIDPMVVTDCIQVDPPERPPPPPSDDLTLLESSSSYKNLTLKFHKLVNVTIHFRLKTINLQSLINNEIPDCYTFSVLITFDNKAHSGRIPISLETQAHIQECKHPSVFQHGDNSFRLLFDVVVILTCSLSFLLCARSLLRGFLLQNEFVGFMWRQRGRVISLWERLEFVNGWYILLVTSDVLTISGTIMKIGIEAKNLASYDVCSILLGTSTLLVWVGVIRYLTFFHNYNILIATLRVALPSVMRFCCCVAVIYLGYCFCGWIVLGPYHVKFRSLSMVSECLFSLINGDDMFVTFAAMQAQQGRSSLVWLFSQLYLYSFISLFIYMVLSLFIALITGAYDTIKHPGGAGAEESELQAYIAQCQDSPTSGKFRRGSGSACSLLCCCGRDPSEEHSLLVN
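Tet-induced TRPML1-DL cells loaded with Ca8 no-wash calcium dye were read kinetically on FDSS. Compound addition was followed by EC80 agonist 54-4 (4 uM final); inhibition was read over 110 s.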
Menin-MLL FL inh: qHTS Assay for Inhibitors Targeting the Menin-MLL Interaction in MLL Related Leukemias: Competition With Fluorescein Labeled MLL-derived Peptide. Fluorescence polarization, fluorescein-MLL peptide displacement from menin. FP activity change, % at 61.4 µM. 290,000 tested, under 10 active. AID 1766, 2009; inconclusive = falling polarisation curve, or a change in total fluorescence; inactive = total fluorescence flat and polarisation flat or rising; no compound was filed as active; the % refers to the polarisation; negative = inhibition;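 note: % of control where 0% means no effect; inhibitors lower the polarisation; unlabelled MLL peptide was the positive control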
gsp antag: qHTS for Antagonists of gsp, the Etiologic Mutation Responsible for Fibrous Dysplasia/McCune-Albright Syndrome: qHTS; gsp-mutant cells, cAMP HTRF, 30 min; control for the full effect not named in the record; Potency, µM (top dose mostly 76.9 µM), for the others: at the highest dose activity change, negative = inhibition, most hits filed as inhibitors; actives 0.4% (n = 340,000); AID 624288, 2012; active = falling curve of any shape with a large fitted effect; inconclusive = falling curve, mostly with a smaller effect; inactive = flat or rising curve; cell line not stated here;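 note: intracellular cAMP measured with PDE inhibitor Ro 20-1724 present during compound exposure; potency is the fitted concentration of half-maximal effect; % is set by controls: 0 for no effect and ±100 for the full control effect; nearly all actives have a fitted effect of over 65% in size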
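Measurement of cellular cAMP by homogeneous time-resolved fluorescence following a 30 min compound exposure at 37C. The PDE inhibitor […] was present throughout; the assay buffer was DPBS with 0.05% BSA and 0.005% Tween 20.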
TRPML1 agonist: qHTS for Agonists of the Human Mucolipin Transient Receptor Potential 1 (TRPML1). Mucolipin-1 (Homo sapiens), Q9GZU1. TRPML1-expressing cells, Ca2+ dye fluorescence, FDSS; host cell line not named in the record; reference of the full effect not given here. actives 0.12% (n = 410,000). AID 624414, 2012. activation, % (no concentration beside the values); in the data active = activation above about 50%; inconclusive = about 30% to 50%; inactive = below about 30%; note: 0% is about no effect; the text of the record puts the active cut at 80%
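Tet-induced TRPML1-DL cells, 1,500 per well, cultured overnight, were loaded with a no-wash Ca2+ dye for 45–90 min. Calcium fluorescence was recorded on the FDSS for 110 s after compound addition, before the EC80 agonist (4 uM 54-4) was added.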
gsp ag: qHTS for Agonist of gsp, the Etiologic Mutation Responsible for Fibrous Dysplasia/McCune-Albright Syndrome: qHTS; gsp mutant cells, cAMP HTRF, 30 min; control for the full effect not named in the record; Potency, µM (highest dose often 76.9 µM), for the others: at the top dose activation (cAMP increase), actives largely listed as activators; actives 0.13% (n = 340,000); active = well fitted activation curve with a large enough effect; inconclusive = small, poorly fitted or top-dose-only effect, or another doubt; inactive = no such curve, though single readings can be large or run the other way; cell line not stated here;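 note: phosphodiesterase inhibitor Ro 20-1724 added with compounds to block cAMP breakdown; potency is the fitted concentration of half-maximal effect; nearly all actives have a fitted effect of over 60% in size; about a fifth of the inactives were tested at one dose only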
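Cells stably selected in G418 were plated at 2000/well, grown 16-24 hr, then given compounds in DMSO with the PDE inhibitor […] (300 uM solution added) for 30 min at 37C; cAMP was read by HTRF.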
ClpP mod: qHTS Assay for Activators of ClpP; purified B. subtilis ClpP, FRET peptide cleavage, 20 min; Potency, µM (highest dose often 57.5 µM), inactives show top-dose activity change, negative = active; ATP-dependent Clp protease proteolytic subunit (Bacillus subtilis (strain 168)), P80244; actives 1.9% (n = 340,000); active = well fitted falling curve with a large enough effect; inconclusive = small, poorly fitted or top-dose-only effect; inactive = no such curve, though single readings can be large or run the other way; note: potency is the fitted concentration of half-maximal effect; the source files actives as falling curves though it sought activators and does not explain the sign; nearly all actives have a fitted effect of over 65% in size; many hits overshoot -100%
Target sequence (P80244 whole entry, looked up): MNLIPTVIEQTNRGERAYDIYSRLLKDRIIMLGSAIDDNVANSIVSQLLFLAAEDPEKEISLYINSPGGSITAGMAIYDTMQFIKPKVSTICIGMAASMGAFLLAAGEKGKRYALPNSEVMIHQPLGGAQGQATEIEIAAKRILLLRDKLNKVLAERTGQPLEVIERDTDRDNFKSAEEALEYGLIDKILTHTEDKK
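ClpP 10 microg/mL final, pH 8 Tris/KCl buffer with BSA, glycerol, Tween-20; compound pinned in; FRET-FV substrate; RT 20 min; Ex320/Em430; ΔFRET vs ADEP 5.8 microM, DMSO, no enzyme.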
* hit, by the source's call; ? = inconclusive; nt = no result given; [ ] = dose if it differs, or a comment.

SMILES	TRPML1 blocker	Menin-MLL FL inh	gsp antag	TRPML1 agonist	gsp ag	ClpP mod
CCN(C(=O)COC(=O)CCC(=O)c1ccc(C)cc1)c1c(N)n(Cc2ccccc2)c(=O)[nH]c1=O	32.2	nt	-0.7%	-0.4	-46.6%[inhibitor]	2.0%
O=C1C2C(C(=O)N1CCc1ccccc1)C1C=CC2C12CC2 (configuration not stated)	0.6	-2.4	2.8%	0.2	-28.6%	-0.8%
COc1ccc(NC(=O)CSc2nc(C)cc(C)n2)cc1	-19.5	1.7	-6.3%	-0.7	17.3%	-20.5%
CC(NC(=S)Nc1ccccc1Cl)C(c1ccccc1)N1CCOCC1 (configuration not stated)	-7.3	0.7	0.6%	79.9*	?	-1.3%
COc1ccc(OC)c(CCNc2ncnc3onc(C)c23)c1	-7.6	nt	nt	-0.1	nt	2.0%
COc1ccc(N=NC2=C(O)CC(C)(C)CC2=O)cc1	14.6	18.7	0.3%	3.3	2.6%	-3.7%
O=C(COc1ccc(Cl)cc1)NNC(=S)NCc1ccccc1	-14.8	-11.9	nt	0.2	-1.3%[15.4 µM]	nt
Cc1cc(C(=O)CN2C(=O)NC3(CCCCC3)C2=O)c(C)n1Cc1ccco1	11.2	-2.0	0.0%	0.2	-38.8%[inhibitor]	-0.2%
O=C(NC1CCCCC1)C(c1ccc(O)cc1)N(C(=O)c1cnccn1)c1cccc(F)c1 (configuration not stated)	-29.3	1.4	0.4%	0.7	20.0%	nt
Cc1ccc(S(=O)(=O)NC(=O)COc2ccc(Cl)cc2Cl)cc1	23.1	-1.7	-7.9%	-1.0	0.3%	-1.7%
COc1ccc(NC(=O)COC(=O)CCc2ccc(S(=O)(=O)N3CCOCC3)cc2)c(OC)c1	-7.4	nt	-25.4%	0.4	-4.6%	1.1%
CC(C)CC(=O)OCc1cn(-c2ccccc2)nn1	-2.9	1.5	-1.1%	0.2	7.0%	-5.7%
Cn1cnc(S(=O)(=O)N2CCCC(C(=O)Nc3ccc(F)cc3Cl)C2)c1 (configuration not stated)	-21.1	nt	nt	1.2	nt	0.4%
CCCN(CC(=O)Nc1ccccc1C)C(=O)c1cccc(S(=O)(=O)N2CCN(c3ccccc3)CC2)c1	-5.3	nt	-11.9%	-0.6	-37.9%	-0.9%
CC1(c2ccc(OC(F)F)cc2)NC(=O)N(CC(=O)N2c3ccccc3NC(=O)C2(C)C)C1=O (configuration not stated)	-0.1	nt	7.5%	4.9	19.0%	1.7%
O=c1cc(N2CCc3ccccc3C2)[nH]c(=O)n1Cc1ccc(F)cc1	-15.7	4.8	7.0%	0.6	-31.2%[inhibitor]	-1.9%
COc1ccc2nc3sc(C(=O)Nc4cc(Cl)c(OC)cc4OC)cc3cc2c1	0.1	nt	nt	-0.6	nt	-1.6%
Nc1cc([N+](=O)[O-])ccc1Nc1ccc(O)cc1	-4.2	26.1	-18.5%	-0.4	-32.4%[inhibitor]	-1.8%
N/C(=N\OC(=O)/C=C/c1ccccc1)c1ccccc1	-20.8	4.3	11.9%	1.0	-52.8%[inhibitor]	0.2%
CSc1nc(N)c2c3c(sc2n1)COC(C(C)C)C3 (configuration not stated)	-23.3	2.5	6.4%	0.3	-6.5%	-3.4%
O=C(CNC(=O)c1cccc(F)c1)N/N=C/c1cccnc1	0.7	nt	4.9%	1.2	10.8%	-2.2%
Cc1cc(C)c(O)c(-c2cc(C(=O)Nc3cccnc3)[nH]n2)c1	11.3	-2.1	-14.4%	-0.5	-40.8%[15.4 µM]	nt
c1ccc(-c2nnnn2CCOCCn2nnnc2-c2ccccc2)cc1	1.5	0.6	-5.5%	0.3	-2.3%	0.7%
O=S(=O)(NCc1ccc(F)cc1)c1cccc(S(=O)(=O)N2CCOCC2)c1	-3.5	1.2	3.0%	-0.6	-7.3%	2.2%
CCOc1ccc(NC(=O)Cn2c(=O)n(Cc3ccc(C(=O)NCc4ccc5c(c4)OCO5)cc3)c(=O)c3ccccc32)cc1	-2.7	nt	nt	-0.6	nt	-29.0%
Cc1cc(C)n2nc(SCCC(=O)NCc3ccccc3)nc2n1	44.4	-2.1	9.3%	0.4	0.2%[15.4 µM]	nt
COc1ccc(-n2nc(C(=O)NCC(=O)Nc3cccc(Cl)c3)c3ccccc3c2=O)cc1OC	-16.2	17.6	-18.9%	0.2	-10.5%[15.4 µM]	nt
NC1(C(=O)O)CSSC1	2.5	nt	-7.6%	0.5	18.2%	-0.9%
CC1(C)CC(=O)C2=C(C1)NCN(Cc1ccccc1)C2	-20.1	2.9	7.8%	-0.1	-26.4%	-2.9%
CCOc1nc(-c2ccncc2)nc2ccccc12	87.1	2.7	-6.3%	0.9	9.0%	-0.2%

Brought forward from above: 2 compounds, followed by the next part.
SMILES	TRPML1 blocker	Menin-MLL FL inh	gsp antag	TRPML1 agonist	gsp ag	ClpP mod
CC1(C)CC(=O)C2=C(C1)NCN(Cc1ccccc1)C2	-20.1	2.9	7.8%	-0.1	-26.4%	-2.9%
CCOc1nc(-c2ccncc2)nc2ccccc12	87.1	2.7	-6.3%	0.9	9.0%	-0.2%
CCOC(=O)c1cc2ccc(OC(=O)c3ccco3)cc2oc1=O	-26.1	-11.1	3.0%	0.7	-2.5%	98.7%
CN1CCN(C2=Cc3ccccc3Sc3cc(F)c(Cl)cc32)CC1	20.3	3.9	8.1%	0.0	-2.8%	-4.2%
O=C(NCCc1ccccc1)c1ccccc1C(F)(F)F	11.0	nt	nt	-0.5	1.5%	-1.6%
CCCCCCCCNC(=O)c1cccnc1SCC(=O)Nc1ccc(OC)cc1OC	15.4	0.0	-9.3%	-0.2	21.7%[15.4 µM]	-4.9%
O=C(COc1ccccc1O)Nc1ccccc1Cl	-20.8	-1.5	-1.3%	-0.3	-39.0%[inhibitor]	-2.2%
CC1(C(=O)NCC2CCCO2)Oc2cccnc2NC1=O (configuration not stated)	6.1	2.6	6.8%	0.0	7.8%[15.4 µM]	-0.8%
NS(=O)(=O)c1ccc(CCN=C(NS(=O)(=O)c2cccs2)c2ccccc2)cc1	-11.3	3.9	13.3%	0.0	3.0%[15.4 µM]	0.1%
N/C(=N\OC(=O)c1ccccc1)C(Cc1ccccc1)C(=O)NOC(=O)c1ccccc1 (configuration not stated)	4.6	nt	-0.4%	-0.7	-50.7%	nt
CC(C)(O)C(O)COc1c2ccoc2cc2oc(=O)ccc12 (configuration not stated)	nt	-3.7	2.6%	nt	nt	?
O=[N+]([O-])c1ccc2c(c1)CNc1ccccc1O2	10.4	3.6	2.3%	0.6	-35.6%[inhibitor]	nt
Cc1ccc2c(c1)c1c(n2CC(O)Cn2nc(C)c(Br)c2C)C(=O)CCC1 (configuration not stated)	-9.9	7.8	-7.3%	-0.6	6.8%	-8.1%
CCCCn1cc(C(=O)c2cc(Br)ccc2O)cc(C#N)c1=O	-22.9	3.4	-20.8%	2.5	-1.3%	18.2%
CC1CCC(C#N)(N(C)C(=O)CSc2nnc(C3CC3)n2C2CC2)CC1 (configuration not stated)	-1.3	nt	5.2%	-0.6	?	0.1%
CCOc1ccc(OCC)c(NS(=O)(=O)c2cccc3nsnc23)c1	0.3	0.8	-8.3%	0.8	2.1%	-1.2%
NNC(=O)Cn1nc(Cc2ccccc2)n(N)c1=O	14.2	nt	10.7%	1.7	0.3%	1.2%
CC(C)CN1CCN(Cc2cnc(-c3ccc(Cl)cc3)nc2)CC1CCO (configuration not stated)	-1.0	1.0	4.9%	0.5	16.7%	-1.1%
CN(C(=O)c1ccc([N+](=O)[O-])cc1)c1ccccc1C(=O)NCc1ccccc1	6.3	-0.8	-5.3%	-0.2	-4.5%[15.4 µM]	-0.4%
CC1C(=O)CCCCCCCCCC2C1(N1CCOCC1)CS2(=O)=O (configuration not stated)	-11.3	4.2	-1.9%	-0.5	-5.1%	-0.8%
NC(=S)Nc1ccc(Cl)c(Cl)c1	2.7	2.5	3.3%	-1.2	1.7%	1.1%
Cc1ccc2c(c1)cc(CN(Cc1ccc3c(c1)OCO3)C(=O)c1ccccc1)c1nnnn12	-2.8	1.5	-17.0%	0.9	2.8%	0.6%
Cc1nc(-c2ccc(S(=O)(=O)N3CCN(CCc4ccccc4)CC3)s2)cs1	15.8	-0.9	-2.3%	-0.1	23.0%	nt
COc1cc(Cl)cc(C2NC(=O)NC(C)=C2C(=O)NCc2ccccc2)c1O (configuration not stated)	-11.7	0.7	7.9%	0.3	27.6%	-0.4%
O=c1[nH][nH]cc1C=Nc1ccc(Cl)cc1Cl	-3.7	-0.6	-2.1%	0.1	?	-0.8%
COc1ccc(NC(=O)C2CC(=O)N(CCc3ccc(F)cc3)C2)c(OC)c1 (configuration not stated)	-7.4	1.2	-1.4%	0.0	-4.3%[15.4 µM]	nt
CC(Oc1ccccc1)C(=O)Nc1c2c(nn1-c1ccccc1)CS(=O)C2 (configuration not stated)	1.5	nt	0.7%	0.1	-4.4%	-2.1%
O=C(CCCc1c[nH]c2ccccc12)NCC1COc2ccccc2O1 (configuration not stated)	-12.4	-2.6	-5.7%	-0.3	1.1%[15.4 µM]	nt
Nc1cc(S(=O)(=O)N2CCOCC2)ccc1N1CCCCC1	6.9	nt	-3.6%	0.0	13.2%	nt
CN(C)c1ccc(C=O)c(Oc2ccccc2)c1	5.4	nt	nt	0.2	4.5%	-1.4%
COCCN(C(=O)COC(=O)CCC(=O)c1ccc(Cl)cc1)c1c(N)n(Cc2ccccc2)c(=O)[nH]c1=O	13.9	nt	2.9%	0.0	0.0%	-10.2%
CCN1CCN(C(=O)CCc2ccc(S(=O)(=O)NCCc3ccccc3)cc2)CC1	7.2	1.2	-1.2%	4.6	14.5%	0.6%
Cc1ccc(OCC(=O)Nc2ccc(C(=O)Nc3ccccc3C(=O)O)cc2)cc1C	10.1	nt	nt	1.9	-17.7%	-3.5%
CCN(CC(O)CON=C1c2ccccc2-c2ccccc21)S(=O)(=O)c1ccc(Cl)cc1 (configuration not stated)	34.2	1.2	-7.8%	0.3	-16.3%	-10.7%
COC(=O)/C(=N\Nc1ccccc1)Sc1nnc(-c2ccc(OC)cc2)n1C	-4.5	nt	1.9%	-0.5	3.1%[15.4 µM]	-2.4%
CCOC(=O)c1ccc(S(=O)(=O)N2CCC(N3CCCCC3)CC2)cc1	-11.6	-1.3	6.5%	3.1	2.5%	-0.4%

Compound activity (PubChem BioAssay)
